Source: PubChem (National Center for Advancing Translational Sciences (NCATS))
HPGD block: qHTS Assay for Inhibitors of HPGD (15-Hydroxyprostaglandin Dehydrogenase) | Potency, µM, without a hit: at the top dose activity change, negative = inhibition, usual class: inhibitors | AID 894, 2007 | purified HPGD, NADH fluorescence kinetic, PGE2 substrate | hit rate 4.3% among 150,000 | 15-hydroxyprostaglandin dehydrogenase [NAD(+)] (Homo sapiens), P15428; active = well fitted inhibition curve with a large enough effect (not every such curve was filed as active); inconclusive = small, poorly fitted or top-dose-only effect, or another doubt; inactive = no such curve, though single readings can be large or run the other way;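 further: top concentration of the series not given in the record; plate controls included wells without enzyme; inactives centre near -10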
Target sequence (P15428 whole entry, looked up): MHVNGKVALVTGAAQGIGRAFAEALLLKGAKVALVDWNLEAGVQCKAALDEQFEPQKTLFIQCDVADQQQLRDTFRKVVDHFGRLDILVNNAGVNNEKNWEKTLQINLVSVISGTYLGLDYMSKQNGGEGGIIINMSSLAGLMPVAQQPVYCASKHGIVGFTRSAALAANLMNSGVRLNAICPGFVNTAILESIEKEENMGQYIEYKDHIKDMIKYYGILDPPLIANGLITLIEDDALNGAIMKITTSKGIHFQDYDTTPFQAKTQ
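20 nM HPGD preincubated 15 min at room temperature with compound in 50 mM Tris-HCl pH 8, 0.01% Tween 20. Started with 1 mM NAD+ and 30 uM prostaglandin E2; NADH fluorescence (360/450 nm) read 5 times over 30-s intervals, last minus first.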
Numbers without * were called inactive; ? = inconclusive; & = joins results of further samples. On the % scale 0 is the no-effect control and ±100 the full control effect; potency means the concentration at half of the fitted maximal effect.

SMILES	HPGD block
C[C@@H]1O[C@@H](O[C@H]2C[C@@H](O)[C@]3(CO)[C@@H]4C(CC[C@]3(O)C2)[C@@]2(O)CC[C@H](C3=CC(=O)OC3)[C@@]2(C)C[C@H]4O)[C@H](O)[C@H](O)[C@H]1O (some centres undefined)	8.7%&-9.4%
CCC(=NCCO)c1c(O)n(-c2ccc(Cl)cc2)c(=O)[nH]c1=O	-6.6%
Cc1ccc(N(C)C(=O)Oc2cccc3ccc(C)nc23)cc1	-1.1%
O=C(Cl)C(Cl)(Cl)Cl	-1.9%
Cc1c(C(=O)N2CCC3(CC2)OCCO3)oc2ccc(S(=O)(=O)N3CCOCC3)cc12	-9.1%
CCN1CCC2(CC1)NC(CO)(CO)CO2	-0.1%
CN1C[C@@H](CS(=O)(=O)N(C)C)C[C@@H]2c3cccc4c3c(cn4C)C[C@H]21	-7.2%
O=C(C[C@H](c1ccccc1)c1c(O)c2ccccc2oc1=O)c1ccccc1	-4.6%
CCCCC(=O)N/N=C/c1c(O)n(Cc2ccco2)c(=O)[nH]c1=O	-29.9%
OC(COCc1ccc(Cl)cc1)CN1CC=C(c2ccccc2)CC1 (centres undefined)	-3.5%
Cc1ccc(N2C(=O)NC(=O)/C(=C/c3cnc(-c4ccccc4)nc3)C2=O)cc1C	20µM*
CN1CCN(CCC(=O)OC2CC3CCC(C2)N3C)CC1 (centres undefined)	0.4%
CN1CCCCC1c1ccc(-c2cccnc2)nc1 (centres undefined)	-6.3%&-16.5%
Cc1ccc(P(=S)(c2ccc(C)o2)N2CCOCC2)o1	-0.5%
Oc1ccc2c3c1O[C@H]1[C@@H](O)CC[C@@]4(O)C(C2)N(CC2CCC2)CCC314 (some centres undefined)	-13.6%
Cn1cccc1/C=C1/C(=O)NC(=O)N(Cc2ccccc2)C1=O	-21.4%
C=CCN(c1ccc(C(=O)N(CC)CC)cc1)S(C)(=O)=O	-21.5%
COP(=O)(OC)c1nc(-c2ccccc2)oc1NCc1ccccc1	?
CC(=O)Nc1ccc(OC(=O)c2ccccc2N)cc1	?
Oc1cccc(/C=N/NP(=S)(c2ccccc2)c2ccccc2)c1	2.1%
Cc1cc(OCCCC(=O)NCc2cccs2)ccc1Cl	-17.2%
CC(C)n1c(=O)c(C=Nc2ccc(Cl)cc2)c(O)n(Cc2ccco2)c1=O	?
CC12CNCC(C)(CNC1)C2O (centres undefined)	-5.3%
O=c1c2ccccc2nc(-c2ccco2)n1-c1ccc(Br)cn1	-7.6%
O=C(c1cccs1)C1CN2CCC1CC2 (centres undefined)	-2.9%
O=C(O)[C@H]1[O][Sb][O][C@@H](C(=O)O)C1O (some centres undefined)	-3.1%
CCC1(CC)C(=O)NC(=NCCc2c[nH]c3ccccc23)NC1=O	-7.3%
CCC(=NCCOc1ccc(Cl)cc1)c1c(O)n(C)c(=O)n(C)c1=O	-9.9%
CC[N+]1(C)CCCC(OC(=O)C(O)(c2ccccc2)c2ccccc2)C1 (centres undefined)	-7.0%&-5.8%
Cc1nonc1OCCNCCNc1ccc([N+](=O)[O-])c2cccnc12	-15.6%
CC12CN3CC(C)(CN(C1)C3c1cccs1)C2 (centres undefined)	-2.1%
COc1cc2c3cc1Oc1cc(ccc1O)C[C@@H]1c4c(cc(OC)c(O)c4Oc4cccc(c4)C[C@H]3N(C)CC2)CC[N+]1(C)C	-3.7%
CN(C(=O)Oc1ccc(Cl)c2cccnc12)c1ccccc1	-3.9%
CCN1c2nc3c(C)cccn3c(=O)c2CC2(C(=O)N(C)C(=O)N(C)C2=O)C1C (centres undefined)	-21.8%
CN(C)[C@@H]1C(=O)C(C(N)=O)=C(O)[C@@]2(O)C(=O)C3=C(O)c4c(O)cccc4[C@@](C)(O)C3CC12 (some centres undefined)	-24.8%
CCC1CN(C)CCC1(OC(C)=O)c1ccccc1 (centres undefined)	2.3%
CC12CN3CC(C)(CN(C1)P3(=O)Oc1ccccc1)C2=O (centres undefined)	-10.4%
CCCN1CCC[C@@H]2Cc3n[nH]cc3C[C@H]21	-12.6%
CCCSc1ccc2nc(NC(=O)OC)[nH]c2c1	?
Cc1cc(N(CCCl)CCCl)ccc1/C=N/NC(=O)c1ccco1	?
CCOP(=S)(OCC)Oc1nc(Cl)c(Cl)cc1Cl	-28.4%&-7.7%
CN1C2CCC1CC(OC(c1ccccc1)c1ccccc1N)C2 (centres undefined)	-6.5%&4.0%
C=C(C)C(=O)CP(=O)(OCC)OCC	-7.4%
CCCCCCC(N)CC(=O)O (centres undefined)	4.0%
c1ccc2c(c1)CNc1ccccc1O2	-18.4%
O=C(Nc1ccccc1)N1CCCC2(CCN(C(=O)Oc3ccccc3)CC2)C1	-3.1%
CC(C)=CCCC1(C)C=Cc2c(O)c3c(c(CC=C(C)C)c2O1)OC12C(CC4CC1C(C)(C)OC2(C/C=C(/C)C(=O)O)C4O)C3=O (centres undefined)	-19.5%
O=C(N1CCOCC1)C1(c2ccccc2)CCNCC1	1.4%
CCC12CN3CC(CC)(CN(C1)C3c1cccnc1)C2=O (centres undefined)	-3.8%
C=C(C)C1Cc2c(ccc3c2OC2COc4cc(OC)c(OC)cc4C2C3=O)O1 (centres undefined)	?

(cont.)
SMILES	HPGD block
C[C@@H](CO)NC(=O)[C@@H]1C=C2c3cccc4[nH]cc(c34)C[C@H]2N(C)C1	?
C=C(C)CSc1nnc([C@@H](N)Cc2c[nH]c3ccccc23)o1	?
O=C(N/N=C/c1c(O)n(C2CC2)c(=S)[nH]c1=O)c1ccccc1O	-14.8%
Cl/C=C/Cl	-12.9%
CCOC(=O)C(C)Oc1cc(C)cc2oc(=O)c3c(c12)CCCC3 (centres undefined)	?
O=C(O)c1cc(N=Nc2ccc([As](=O)(O)O)cc2)ccc1O	-11.9%
FC(F)(F)c1cccc(N2CCNCC2)c1	-11.7%
Clc1ccc(C(c2ccc(Cl)cc2)C(Cl)(Cl)Cl)cc1	-8.0%
Cc1ccc(NC2=NCCCS2)c(C)c1C	-4.3%
O=C(Cc1ccccc1)N1CCN(CC2CC3C=CC2C3)CC1 (centres undefined)	-6.2%

Of the compounds above, these contain an NH in an aromatic ring.
SMILES	HPGD block
CCC(=NCCO)c1c(O)n(-c2ccc(Cl)cc2)c(=O)[nH]c1=O	-6.6%
CCCCC(=O)N/N=C/c1c(O)n(Cc2ccco2)c(=O)[nH]c1=O	-29.9%
CCC1(CC)C(=O)NC(=NCCc2c[nH]c3ccccc23)NC1=O	-7.3%
CCCN1CCC[C@@H]2Cc3n[nH]cc3C[C@H]21	-12.6%
CCCSc1ccc2nc(NC(=O)OC)[nH]c2c1	?
C[C@@H](CO)NC(=O)[C@@H]1C=C2c3cccc4[nH]cc(c34)C[C@H]2N(C)C1	?
C=C(C)CSc1nnc([C@@H](N)Cc2c[nH]c3ccccc23)o1	?
O=C(N/N=C/c1c(O)n(C2CC2)c(=S)[nH]c1=O)c1ccccc1O	-14.8%

Remaining list, next part.
SMILES	HPGD block
CN1/C(=C\C=C\C2=[N+](C)c3ccc4ccccc4c3C2(C)C)C(C)(C)c2ccccc21	-1.6%
CC1O[C@@H](OC2CC[C@@]3(C=O)C4CC[C@]5(C)C(C6=CC(=O)OC6)CC[C@@]5(O)C4CC[C@]3(O)C2)C(O)C(O)C1O (some centres undefined)	-7.4%
Cc1ccc(C2=NCC(=O)N(CC(=O)N3CCCCC3)c3sc(C)c(C)c32)cc1	-4.6%
CC[C@@H]1CN2CCc3cc(OC)c(OC)cc3[C@H]2C[C@@H]1C[C@H]1NCCc2cc(OC)c(OC)cc21	-6.0%
CC(C)CC(NP(=O)(O)O[C@@H]1O[C@@H](C)[C@H](O)[C@@H](O)[C@H]1O)C(=O)NC(Cc1c[nH]c2ccccc12)C(=O)O (some centres undefined)	3.5%
CNC(=O)Oc1ccc(-c2cn3cc(Cl)ccc3n2)cc1	-23.1%
Cc1nn(Cc2ccccc2)c(C)c1C=C1C(=O)NC(=O)NC1=O	?
Cc1ccc(-c2nc(CS(=O)CC(=O)N3CCC4(CC3)OCCO4)c(C)o2)cc1 (centres undefined)	-3.1%
c1ccc(C2OCCN3CCCCC23)cc1 (centres undefined)	-6.9%
CCCCC(=O)Cl	-7.9%

Among those listed so far, two contain an aryl thioether with sulfur outside any ring:
SMILES	HPGD block
CCCSc1ccc2nc(NC(=O)OC)[nH]c2c1	?
C=C(C)CSc1nnc([C@@H](N)Cc2c[nH]c3ccccc23)o1	?

Single values from the list.
CN1/C(=C\C=C\C2=[N+](C)c3ccc4ccccc4c3C2(C)C)C(C)(C)c2ccccc21 in HPGD block shows -1.6%
CCCCC(=O)Cl in HPGD block shows -7.9%

Later entries
SMILES	HPGD block
Nc1ccc(S(=O)(=O)N2CC3CC(C2)c2cccc(=O)n2C3)cc1 (centres undefined)	-3.7%
O=C(Nc1ccc(-c2nc3ccccc3c(=O)o2)cc1)c1ccco1	?
O=C1CCCN1CC#CCN1CCCC1	2.4%&-8.7%&-11.1%
COc1ccc2c(c1OC)C(=O)O[C@@H]2C1c2cc3c(cc2CCN1C)OCO3 (some centres undefined)	-2.4%
Cc1ccc(Cl)cc1-n1c(O)c(C=NCCCN2CCOCC2)c(=O)[nH]c1=O	-5.5%
COc1cc(/C=N/n2cnnc2)ccc1OC(=O)N(C)C	?
O=C(CCN1CCOCC1)NCC(=O)Nc1ccc(Br)cc1C(=O)c1ccccc1	-11.2%
Cc1cc(C)cc(C(=O)OC2C[C@H]3CC[C@@H](C2)N3C)c1 (some centres undefined)	-2.7%
COC(=O)[C@@H]1c2cc3c(c(O)c2[C@@H](O)C[C@]1(C)O)C(=O)c1c(O)cc2c(c1C3=O)O[C@H]1O[C@@]2(C)[C@@H](O)[C@H](N(C)C)[C@H]1O	?
CCCCCn1c(=O)c(C(=O)NCc2ccccn2)c(O)c2ccccc21	-18.4%
C[C@]12N[C@H](Cc3ccccc31)c1ccccc12	-8.1%
C/C(O)=C(/C#N)C(=O)Nc1cc(Br)ccc1Br	-7.9%
Nc1ccc2c(c1)Cc1ccccc1-2	?
O=c1[nH]c2ccccc2c(=O)n1-c1cccc(Cl)c1	-17.6%
Cc1ccc(N2C(=O)NC(=O)/C(=C\c3ccsc3)C2=O)cc1C	31.6µM*
Cc1ccccc1-n1c(O)c(/C=N/N2CCOCC2)c(=O)[nH]c1=S	-20.5%
O=c1[nH]c(=O)n(Cc2ccc(F)cc2)c(O)c1C=NCC1CCCO1 (centres undefined)	-21.0%
CCOC(=O)c1ccc(N2C(=O)CC(N3CCC(C#N)(c4ccccc4)CC3)C2=O)cc1 (centres undefined)	-5.1%
CN(C)P(=O)(C(Cl)=C(N1CCCCC1)N1CCCCC1)N(C)C	-4.4%
CCCCNC(=O)c1c(N)n(CCCOC)c2nc3ccccc3nc12	?
CCN(CC)CCOC(=O)c1cc2cc(COC)ccc2o1	-16.4%
CC(C)NC(=O)N1CCC2(CCNCC2)CC1	-7.7%
CSc1ncc(Cl)c(C(=O)O)n1	-9.6%
O=C(NCc1ccc(C(=O)N2CCC3(CC2)OCCO3)cc1)c1cccc(Br)c1	-7.4%
N#Cc1cc2c(nc1SCC(=O)Nc1cc(Cl)cc(Cl)c1)C1CCN2CC1	-21.8%
CCN(CC)CCN1Cc2ccccc2C1=N	-4.6%
CCC(C)N1Cc2ccccc2C1=N (centres undefined)	3.4%
CN1CCN(c2c(N)c(=O)oc3ccccc23)CC1	-1.3%
C/C(=N\Nc1ccccc1)c1c(O)n(C)c(=O)n(C)c1=O	-11.0%
CC(=NCCN1CCOCC1)c1c(O)n(Cc2ccccc2)c(=O)[nH]c1=O	?
CC1(C)S[C@@H]2[C@H](N)C(=O)N2C1C(=O)O (some centres undefined)	-10.5%
C=C[C@]12CN(C)[C@H]3C1[C@@]1(C(=O)Nc4ccccc41)[C@H]1C[C@H]2[C@H]3CO1	-4.5%
CSC(=Nc1ccccc1)c1c(O)n(C)c(=O)n(C)c1=O	-10.2%
O=c1[nH]cnc2[nH]cc(CN3CCCCC3)c12	-0.1%
Cc1cc(C=C2C(=O)NC(=O)NC2=O)c(C)n1-c1ccc2c(c1)OCO2	-10.0%
Nc1c(C(=O)NCc2ccco2)c2nc3ccccc3nc2n1CCN1CCOCC1	?
CCCCC/C=C\C/C=C\C/C=C\C=C\[C@H](CCCC(=O)O)OO	-9.4%
CC12CCC3C(CCC4C/C(=N/O)CCC43C)C1CCC2O (centres undefined)	-6.4%
CCC(=NCCCn1ccnc1)c1c(O)n(Cc2ccccc2)c(=O)[nH]c1=O	?
COc1ccc(C2Oc3c(I)c(OC)cc(OC)c3CC2O)cc1OC (centres undefined)	-5.6%
CN(Cc1c[nH]c2ccccc12)C1CCCCC1	-2.4%
Cc1cc(C=C2C(=O)N(C)C(=S)N(C)C2=O)c(C)n1-c1cccnc1	10µM*
COc1cc(N2CCOCC2)ccc1/C=C1\C(=O)NC(=O)N(C2CCCCC2)C1=O	?
CCC(=Nc1ccc2c(c1)CCC2)c1c(O)n(C2CCCCC2)c(=O)[nH]c1=O	-11.4%
CCOc1ccccc1C1SCC(=O)Nc2c1c(=O)[nH]n2C(CC)CC (centres undefined)	-4.6%
NC(N)=NOCC[C@H](N)C(=O)O	-2.4%&1.5%&2.6%
CCCCCCCCCCCOC(=O)c1ccccc1C(=O)OCCCCCCCCCCC	-5.9%
COc1ccc2c(c1)CC1(CN2C)C(=O)NC(=O)N(CCc2ccccc2)C1=O (centres undefined)	-2.0%
Cc1oc(-c2ccccc2F)nc1CS(=O)CC(=O)N1CCC2(CC1)OCCO2 (centres undefined)	-5.7%
O=C(c1cc(S(=O)(=O)N2CCOCC2)ccc1F)N1CCC2(CC1)OCCO2	-1.6%
Cc1cc(NC(=O)COC(=O)c2c(C)nn(Cc3ccccc3)c2C)no1	-0.7%
Cc1ccc2c(c1)N(CCC(=O)N1CCC3(CC1)OCCO3)C(=O)CO2	-13.1%

This is a subset; count on the stated rates, not on these rows.
